Bioassay records from PubChem BioAssay.
Vaccinia inh: Vaccinia orthopox stage-specific inhibition. activity change (mCherry), % (test concentration not listed). hit rate 0.01% among 89,000. Vaccinia-infected cells, mCherry/Venus stage reporter fluorescence; hits give low values; some inactives read as strong as hits. AID 1053133;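 active means mCherry past -33% and 40 or more points under the early reporter, replicates agreeing; inconclusive means past -33% without that gap or agreement; tested in A549 cells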;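 further: scaled between vehicle wells and reference inhibitor wells; 23 nL library stock went into each well; one replicate is shown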
Vaccinia inh Venus: recorded beside Vaccinia inh, whose call it bears; activity change (Venus), %; measured here: Venus reporter, other viral stage;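 negative = less Venus signal; first of two replicates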
* = called active by the depositor; ? = inconclusive; · = not tested or not shown; & = joins results of further samples. An excerpt; count on the stated rates, not on these rows.

SMILES,Vaccinia inh,Vaccinia inh Venus
Cc1ccc(S(=O)(=O)Nc2ccc3c(c2)C(=O)N([C@@H](C)CO)C[C@@H](C)[C@H](CN(C)C(=O)CCC(F)(F)F)OCCCC[C@H](C)O3)cc1,-9.8,-17.2
OC[C@@H]1[C@@H](c2ccc(-c3ccccc3)cc2)[C@@H]2CN(Cc3cncnc3)CCCCN12,14.8,0.8
COCC#Cc1ccc([C@@H]2[C@@H](CO)N3C(=O)CN(C(=O)C4CCOCC4)C[C@H]23)cc1,15.9,12.8
O=C(C[C@@H]1C=C[C@H](NS(=O)(=O)c2ccc(F)cc2)[C@@H](CO)O1)NCCN1CCCCC1,4.9,1.1
C[C@@H]1CCCCO[C@@H](CN(C)C(=O)C2CCCCC2)[C@H](C)CN([C@H](C)CO)C(=O)c2cc(N(C)C)ccc2O1,-15.4,-9.1
COc1ccccc1-c1ccc2n(c1=O)C[C@H]1[C@H](CO)[C@@H](C(=O)NC3CCC3)N(C(=O)C3CCC3)[C@@H]21,21.7,3.5
CC(C)NC(=O)N1CCCCN2[C@H](CO)[C@H](c3ccc(Br)cc3)[C@@H]2C1,26.5,12.8
COc1cccc(S(=O)(=O)N[C@@H]2CC[C@@H](CCn3cc(-c4ccccn4)nn3)O[C@H]2CO)c1,-9.1,7.1
O=C(c1ccc2c(c1)OCO2)N1CC(=O)N2[C@H](CO)[C@@H](c3ccc(C#CC4CCCC4)cc3)[C@H]2C1,?,·
Cc1noc(C)c1S(=O)(=O)Nc1ccc2c(c1)C(=O)N([C@@H](C)CO)C[C@@H](C)[C@@H](CN(C)Cc1ccc(Oc3ccccc3)cc1)O2,-32.6,-25.2
COc1ccc(NC(=O)N(C)C[C@H]2OCCCC[C@H](C)Oc3ccc(NS(=O)(=O)c4ccc(C)cc4)cc3C(=O)N([C@H](C)CO)C[C@@H]2C)cc1,-13.4,-20.1
C[C@H]1CN([C@@H](C)CO)C(=O)c2c(c3ccccc3n2C)-c2ccccc2CO[C@@H]1CN(C)S(=O)(=O)c1ccc(C#N)cc1,?,·
CO[C@H]1CN(C)C(=O)c2cc(NC(=O)NC(C)C)ccc2OC[C@H](C)N(C)C[C@H]1C,-4.8,-4.6
O=C(C[C@H]1CC[C@H](NC(=O)NC2CCCCC2)[C@H](CO)O1)NCc1ccc(F)cc1,-3.9,8.0
COc1cccc(NC(=O)N[C@H]2CC[C@@H](CC(=O)Nc3ccccc3)O[C@H]2CO)c1,1.0,-2.8
Cc1ccc(S(=O)(=O)N(C)C[C@@H]2Oc3ccc(NC(=O)CCCCCC(=O)Nc4ccccc4N)cc3C(=O)N([C@@H](C)CO)C[C@H]2C)cc1,5.7,0.5
CO[C@H]1CN(C)C(=O)c2ccc(NC(=O)C3CCC3)cc2OC[C@@H](C)N(Cc2ccc(F)cc2)C[C@@H]1C,-22.3,-15.9
C[C@H](CO)N1C[C@H](C)[C@@H](CN(C)C(=O)Nc2ccc(F)cc2)OCCCC[C@H](C)Oc2ccc(NC(=O)CCCN(C)C)cc2C1=O,9.2,6.9
CC(=O)N(C[C@H]1N[C@H](CO)[C@H]1c1ccc(-c2cccnc2)cc1)C1CCCC1,-8.5&-4.2,-2.3&-5.9
CO[C@@H]1CN(C)C(=O)c2ccc(NC(=O)c3nc4ccccc4s3)cc2OC[C@H](C)NC[C@H]1C,-27.4,-17.0

3 entries already listed, sorted by heavy-atom count, descending:
SMILES,Vaccinia inh,Vaccinia inh Venus
Cc1ccc(S(=O)(=O)Nc2ccc3c(c2)C(=O)N([C@@H](C)CO)C[C@@H](C)[C@H](CN(C)C(=O)CCC(F)(F)F)OCCCC[C@H](C)O3)cc1,-9.8,-17.2
C[C@@H]1CCCCO[C@@H](CN(C)C(=O)C2CCCCC2)[C@H](C)CN([C@H](C)CO)C(=O)c2cc(N(C)C)ccc2O1,-15.4,-9.1
COc1cccc(NC(=O)N[C@H]2CC[C@@H](CC(=O)Nc3ccccc3)O[C@H]2CO)c1,1.0,-2.8

Additional records
SMILES,Vaccinia inh,Vaccinia inh Venus
C[C@@H]1CCCCO[C@H](CN(C)C(=O)c2ccccc2)[C@H](C)CN([C@@H](C)CO)C(=O)c2cc(NC(=O)Nc3ccc(F)cc3)ccc2O1,-10.8,-5.4
C[C@H](CO)N1C[C@H](C)[C@H](CN(C)S(=O)(=O)c2cccs2)Oc2c(NC(=O)C3CCCCC3)cccc2C1=O,12.5,5.8
CCCC#Cc1ccc2c(c1)O[C@@H](CN(C)Cc1ccncc1)[C@@H](C)CN([C@H](C)CO)S2(=O)=O,?,·
CC=Cc1ccc2n(c1=O)C[C@@H]1N[C@H]2[C@H](C(=O)NCCc2ccccc2)[C@H]1CO (mixture of isomers),8.8,10.9
Cc1noc(C)c1NC(=O)Nc1ccc2c(c1)C(=O)N([C@@H](C)CO)C[C@@H](C)[C@@H](CN(C)Cc1ccc(C(F)(F)F)cc1)OCCCC[C@@H](C)O2,?,·
COc1ccc(S(=O)(=O)Nc2cccc3c2O[C@H](CN(C)S(=O)(=O)c2ccccc2)[C@@H](C)CN([C@H](C)CO)C3=O)cc1,19.5,20.4
CCN1[C@@H]2c3ccc(-c4ccccc4F)c(=O)n3C[C@@H]2[C@@H](CO)[C@@H]1C(=O)NC1CCC1,13.7,3.1
COC(=O)[C@@H]1[C@@H](CO)[C@@H]2Cn3c(ccc(-c4ccccc4F)c3=O)[C@H]1N2Cc1cccnc1,3.6,1.4
O=C(CCN1CCCCC1)NCC[C@@H]1CC[C@H](NS(=O)(=O)c2cccc(F)c2)[C@@H](CO)O1,1.3,6.6
COCC(=O)N(C)C[C@H]1[C@@H](c2ccc(-c3cccnc3)cc2)[C@H](CO)N1C(C)=O,15.7,11.3
C[C@H]1CN([C@@H](C)CO)C(=O)c2cc(C3=CCCCC3)cnc2O[C@H]1CN(C)C(=O)Nc1cccc(F)c1,-29.5,-29.1
CCCNC(=O)N1[C@H](CO)[C@@H](c2ccc(-c3cccc(OC)c3)cc2)[C@@H]1C#N,-32.0,-18.1
CCCC#Cc1ccc2c(c1)O[C@H](CN(C)C)[C@H](C)CN([C@@H](C)CO)S2(=O)=O,-15.3,-4.1
COCc1cn(CC[C@@H]2CC[C@H](NC(=O)CCN3CCCCC3)[C@H](CO)O2)nn1,19.1,27.4
CN1[C@@H]2c3ccc(-c4ccncc4)c(=O)n3C[C@@H]2[C@@H](CO)[C@@H]1C(=O)NCCc1ccccc1,9.5,14.5
CS(=O)(=O)N1[C@H](C#N)[C@@H](c2ccccc2)[C@H]1CO,6.4,0.3
COCC(=O)N1[C@H](C#N)[C@@H](c2ccccc2)[C@@H]1CO,20.1,1.0
C[C@H](CO)N1C[C@H](C)[C@@H](CN(C)CC2CCCC2)Oc2ncc(C#C[C@@H](C)O)cc2C1=O,23.9,9.1
CN1CCN(C(=O)C[C@@H]2CC[C@@H]3[C@H](COC[C@@H](O)CN3C(=O)C3CCOCC3)O2)CC1,21.8,18.0
C[C@@H]1CN([C@H](C)CO)C(=O)c2cc(Br)cnc2O[C@H]1CN(C)Cc1ccccc1,26.9,9.7
CC(C)C#Cc1ccc([C@H]2[C@@H](CO)N3C(=O)CN(C(=O)NC4CCCCC4)C[C@@H]23)cc1,-18.0,-2.5
C[C@H]1CCCCO[C@H](CN(C)CC2CC2)[C@@H](C)CN([C@@H](C)CO)C(=O)c2cc(NC(=O)Nc3ccc4c(c3)OCO4)ccc2O1,-7.1,-13.2
CNC[C@@H]1OCCCC[C@@H](C)Oc2ccc(NC(=O)Nc3ccccc3)cc2C(=O)N([C@H](C)CO)C[C@H]1C,-2.5,-4.7
Cc1ccccc1-c1cnc2c(c1)C(=O)N([C@H](C)CO)C[C@@H](C)[C@H](CN(C)Cc1ccncc1)O2,-11.3,-0.9
C[C@H](CO)N1C[C@H](C)[C@H](CN(C)C(=O)NC2CCCCC2)Oc2c(NS(=O)(=O)c3ccc(F)cc3)cccc2C1=O,-7.0,1.3
CCCNC(=O)N(C)C[C@H]1Oc2cc(Br)ccc2S(=O)(=O)N([C@H](C)CO)C[C@@H]1C,9.7,1.4
COc1ccc(C(=O)Nc2ccc3c(c2)C(=O)N(C)C[C@@H](OC)[C@H](C)CN[C@@H](C)CO3)cc1,-6.7,-0.8
C[C@H](CO)N1C[C@H](C)[C@@H](CN(C)CC2CCCCC2)Oc2ccc(NC(=O)C3CC3)cc2C1=O,-0.5,3.1
CCC(=O)N1C[C@H](C)[C@H](OC)CN(C)C(=O)c2cc(NC(=O)c3cnccn3)ccc2OC[C@H]1C,3.0,-3.6
C[C@@H]1CCCCO[C@H](CN(C)C(=O)Nc2ccc(F)cc2)[C@H](C)CN([C@@H](C)CO)C(=O)c2cc(N(C)C)ccc2O1,-2.2,5.3
CCN1[C@H](C(=O)NC2Cc3ccccc3C2)[C@@H](CO)[C@@H]2Cn3c(ccc(C4=CCCC4)c3=O)[C@@H]21,2.5,10.3
C[C@H](CO)N1C[C@H](C)[C@H](CN(C)Cc2ccc(C(=O)Nc3ccccc3N)cc2)Oc2ccc(NC(=O)C3CCCCC3)cc2CC1=O,-18.3,-18.8
CO[C@H]1CN(C)C(=O)c2ccc(NC(=O)Nc3ccc(Cl)cc3)cc2OC[C@@H](C)N(C(=O)Nc2c(C)noc2C)C[C@@H]1C,10.7,15.4
C[C@@H]1CCCCO[C@@H](CN(C)CC2CCCCC2)[C@H](C)CN([C@H](C)CO)C(=O)c2cc(NC(=O)Nc3ccc(C(F)(F)F)cc3)ccc2O1,28.8,5.9
CC(C)(C)[C@H]1C=C(C(=O)N2CCN(Cc3ccccc3)CC2)O[C@@H](OCc2ccc(CO)cc2)C1,-0.4,0.2
C[C@H](CO)N1C[C@H](C)[C@@H](CN(C)C(=O)Nc2ccc(C(F)(F)F)cc2)Oc2ncc(-c3ccc(C#N)cc3)cc2C1=O,?,·
C[C@H](CO)N1C[C@H](C)[C@H](CN(C)S(=O)(=O)c2ccc(F)cc2)Oc2ccc(NS(=O)(=O)c3cccs3)cc2C1=O,9.7,-2.6
C[C@@H]1CN([C@@H](C)CO)C(=O)c2cc(NC(=O)Nc3cccc4ccccc34)ccc2O[C@@H]1CN(C)Cc1ccc(-c2ccccc2)cc1,-2.0,5.9
C[C@@H](NC(=O)[C@@H]1[C@@H](CO)[C@@H]2Cn3c(ccc(-c4ccncc4)c3=O)[C@@H]2N1C)c1ccccc1,7.9,7.6
C[C@H](CO)N1C[C@H](C)[C@@H](CN(C)S(=O)(=O)c2cn(C)cn2)Oc2ccc(NS(=O)(=O)c3ccc(Cl)cc3)cc2C1=O,12.9,13.6

Given with values under each structure: 5 of the compounds above
Values in the order: Vaccinia inh | Vaccinia inh Venus
CCN1[C@H](C(=O)NC2Cc3ccccc3C2)[C@@H](CO)[C@@H]2Cn3c(ccc(C4=CCCC4)c3=O)[C@@H]21
  2.5 | 10.3
C[C@H](CO)N1C[C@H](C)[C@H](CN(C)Cc2ccc(C(=O)Nc3ccccc3N)cc2)Oc2ccc(NC(=O)C3CCCCC3)cc2CC1=O
  -18.3 | -18.8
CO[C@H]1CN(C)C(=O)c2ccc(NC(=O)Nc3ccc(Cl)cc3)cc2OC[C@@H](C)N(C(=O)Nc2c(C)noc2C)C[C@@H]1C
  10.7 | 15.4
C[C@@H]1CCCCO[C@@H](CN(C)CC2CCCCC2)[C@H](C)CN([C@H](C)CO)C(=O)c2cc(NC(=O)Nc3ccc(C(F)(F)F)cc3)ccc2O1
  28.8 | 5.9
CC(C)(C)[C@H]1C=C(C(=O)N2CCN(Cc3ccccc3)CC2)O[C@@H](OCc2ccc(CO)cc2)C1
  -0.4 | 0.2

Next compounds:
SMILES,Vaccinia inh,Vaccinia inh Venus
CNC[C@H]1OCCCC[C@@H](C)Oc2ccc(NS(=O)(=O)c3cccs3)cc2C(=O)N([C@@H](C)CO)C[C@H]1C,10.4,2.3
COCC(=O)Nc1ccc2c(c1)OC[C@H](C)N(Cc1cccc(F)c1)C[C@@H](C)[C@@H](OC)CN(C)C2=O,-8.3,-8.0
COc1cc(CN2CC3(CCN(C(=O)c4cccnc4)CC3)c3c([nH]c4cc(OC)ccc34)[C@@H]2CO)cc(OC)c1,-5.4,-3.7
C[C@H]1CN([C@@H](C)CO)C(=O)c2cccc(NC(=O)NC3CCCCC3)c2O[C@H]1CN(C)S(=O)(=O)c1cn(C)cn1,10.8,2.6
C[C@H]1CN([C@@H](C)CO)C(=O)Cc2cc(NS(=O)(=O)c3ccccc3)ccc2O[C@@H]1CN(C)Cc1ccc(Oc2ccccc2)cc1,-9.7,-13.2
C[C@@H]1CCCCO[C@@H](CN(C)C(=O)NC2CCCCC2)[C@H](C)CN([C@@H](C)CO)C(=O)c2cc(NC(=O)Nc3ccccc3)ccc2O1,-3.7,-0.1
O=C(Nc1cccc(F)c1)N1CC(=O)N2[C@H](CO)[C@H](c3ccc(-c4ccc(F)cc4)cc3)[C@H]2C1,?,·
CC(C)NC(=O)Nc1ccc2c(c1)C(=O)N([C@H](C)CO)C[C@@H](C)[C@H](CN(C)Cc1ccc(-c3ccccc3)cc1)O2,?,·
CCC(=O)N(C)C[C@H]1Oc2ncc(C#C[C@@H](C)O)cc2C(=O)N([C@@H](C)CO)C[C@H]1C,9.2,11.6
CC(C)NC(=O)N(C)C[C@@H]1OCCCC[C@@H](C)Oc2ccc(NC(=O)c3ccccc3)cc2C(=O)N([C@@H](C)CO)C[C@@H]1C,13.5,6.8
O=C(C[C@H]1C[C@H]2c3cc(NC(=O)NC4CCCC4)ccc3O[C@H]2[C@H](CO)O1)NCc1cccc(F)c1,-0.5,-4.8
O=C(C1CCCCC1)N1CC[C@H]2[C@H](CO)Nc3ccc(Br)cc3[C@H]21,-10.5,-7.5
C[C@@H]1CCCCO[C@@H](CN(C)C(=O)c2ccncc2)[C@H](C)CN([C@@H](C)CO)C(=O)c2cc(NS(=O)(=O)c3ccc(F)cc3)ccc2O1,36.1,17.1
CCc1csc(N2[C@@H](C#N)[C@@H](c3ccccc3-c3ccc(F)cc3)[C@@H]2CO)n1,-0.7,2.4
COc1ccc(CN(C)C[C@@H]2Oc3c(NS(=O)(=O)c4ccc(C)cc4)cccc3C(=O)N([C@@H](C)CO)C[C@@H]2C)cc1,-13.9,-14.8
